Assay outcomes (PubChem BioAssay)
T cruzi inh: blocks replication of Trypanosoma cruzi; 1.4% of 300,000 active; inhibition, % (no concentration beside the values); AID 1885; T. cruzi beta-gal in NIH3T3, luminescence, 90 h;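 active = mean inhibition across valid replicates above about 55%, limit read from the data; inconclusive = mean below that limit but half or more replicates reach it; inactive = mean below it, under half of replicates reach it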;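 also: signal also drops with host cell toxicity which is not excluded here; 0% = plate median of DMSO wells and 100% = zero luminescence signal; higher percent means less beta-gal luminescence so fewer parasites; stock transfer was 50 nL into about 50 µL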
Ecoli rRNA inh: inhibitors of bacterial rRNA selective over humanized ribosomes. E. coli WT GFP vs humanized-ribosome RFP mutants, fluorescence, 24 h; stronger effect = lower value; DMSO median 0, no signal -100. GFP signal change (wild-type ribosome), % (test concentration not listed). 1.6% of 350,000 active. AID 720706;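 active = significant combined selectivity score with lowered wild-type GFP, culture density cut under 30%, mutant RFP and density less affected; inactive = any of these conditions unmet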; also: one replicate is shown; some compounds called inactive have numbers as strong as hits
ALR H2O2 inh: inhibitors of human sulfhydryl oxidase ALR; purified ALR, DTT oxidation, H2O2 HRP-luminol luminescence; inhibition, % (no concentration beside the values); 3.8% of 290,000 active; AID 485317;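 active = mean and each replicate at 75% or more; inconclusive = only one of the two met; inactive = neither met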;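 also: stock transfer was 7.5 nL into about 7.5 µL; 0% = neutral wells and 100% = wells with inactivated enzyme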
Target sequence (P55789 whole entry, looked up): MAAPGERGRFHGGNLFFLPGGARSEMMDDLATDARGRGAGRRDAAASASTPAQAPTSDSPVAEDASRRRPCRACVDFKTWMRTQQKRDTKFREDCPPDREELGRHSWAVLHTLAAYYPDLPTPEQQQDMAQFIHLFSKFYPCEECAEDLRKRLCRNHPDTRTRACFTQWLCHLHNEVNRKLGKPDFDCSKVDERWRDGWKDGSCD
Beta cell apopt: beta cell apoptosis inhibition; protection from apoptosis, % (no concentration beside the values); 0.8% of 300,000 active; INS-1E cytokine-induced death, ATP luminescence, 48 h; percent of positive-control rescue, neutral wells zero; AID 435005;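 active = all replicates at 75% or more, or half of them and the mean; inconclusive = half reach 75% but not the mean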;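 also: 0% = cytokine-treated negative control wells and 100% = positive control rescue; higher means more ATP so stronger rescue from cytokine killing; wells of about 40 µL received 100 nL stock; the first replicate is given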
Calb FLC: C. albicans growth modulation with fluconazole; C. albicans CaCi-2 (fluconazole-resistant clinical isolate) + fluconazole, Alamar Blue growth, 48 h; growth inhibition, % (concentration not given with the values); 0.57% of 300,000 active; AID 1979;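 active = most replicates above 75%; inconclusive = exactly half above 75%; inactive = most below 75%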;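 also: all wells also contain fluconazole at 8 µg/ml as a sub-toxic cotreatment; 0% = median of DMSO wells and 100% = median of geldanamycin control wells; wells of about 8 µL received 7.5 nL stock; the first replicate is given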
B2AR ag: activates human beta-2 adrenergic receptor causing internalization. AID 504454. P07550. 0.43% of 340,000 active. response, % (concentration not given with the values). Am2.2-beta2AR cells, FAP receptor internalization, flow cytometry; reference of the scale not given here;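 active = response above a set limit, near 3 SD of response in nonfluorescent compounds, cut at about 42% in these data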;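 also: stock transfer was 100 nL into about 11 µL; a reference agonist was the positive control; negative values mostly stem from fluorescent compounds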
Target sequence (P07550 whole entry, looked up): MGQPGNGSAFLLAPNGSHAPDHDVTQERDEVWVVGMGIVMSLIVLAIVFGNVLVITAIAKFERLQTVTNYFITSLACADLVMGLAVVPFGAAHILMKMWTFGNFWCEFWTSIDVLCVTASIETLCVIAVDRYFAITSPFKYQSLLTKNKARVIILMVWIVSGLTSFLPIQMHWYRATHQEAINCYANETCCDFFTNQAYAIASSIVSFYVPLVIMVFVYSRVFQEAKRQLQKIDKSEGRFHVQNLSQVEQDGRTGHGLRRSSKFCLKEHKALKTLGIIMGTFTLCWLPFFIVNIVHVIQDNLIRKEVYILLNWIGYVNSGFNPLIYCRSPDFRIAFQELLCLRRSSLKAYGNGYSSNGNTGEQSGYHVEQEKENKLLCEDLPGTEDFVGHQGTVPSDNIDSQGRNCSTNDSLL
A1 inh: inhibitors of the anti-apoptotic protein A1, read as caspase activation; MEF A1-2A-BIM cells, Caspase-Glo 3/7 luminescence, 3 h; percent of clofoctol response, vehicle zero; caspase activation, % (test concentration not listed); 0.066% of 330,000 active; AID 2462;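 active = over half of replicate activation scores above 10%, or exactly half above 10 with the replicate mean above 10; inconclusive = replicate mean below 10 yet half the replicates above 10; inactive = over half of replicates below 10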;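 also: wells of about 30 µL received 50 nL stock; many hits fall short of the cut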
LANA-H2B inh: blocks KSHV LANA binding to histone H2A/H2B; cell-free LANA-H2A/H2B peptide, fluorescence polarization; Q9QR71; 0.6% of 320,000 active; inhibition, % (test concentration not listed); in the data active = inhibition mostly above about 10%, no sharp cut-off; inactive = mostly below about 6.7%;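 also: stock transfer was 7.5 nL into about 10 µL; 0% = median of vehicle wells and 100% = median of positive control wells; one replicate is shown; the record names a cut of 25% in any replicate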
Ecoli rRNA inh OD600: also measured in Ecoli rRNA inh; calls as there; OD600 change, %; measured here: OD600 growth;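 optical density of the mix in the first replicate; 0 = DMSO median and -100 = no signal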
Ecoli rRNA inh RFP: recorded beside Ecoli rRNA inh, whose call it bears; RFP signal change, %; measured here: RFP humanized mutant strains;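 first replicate; 0 = DMSO median and -100 = no signal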
An asterisk follows results filed as active; ? = inconclusive; / = no result given. Some of the compounds tested; rates above refer to the full screens.

SMILES	T cruzi inh	Ecoli rRNA inh	Ecoli rRNA inh OD600	Ecoli rRNA inh RFP	ALR H2O2 inh	Beta cell apopt	Calb FLC	B2AR ag	A1 inh	LANA-H2B inh
CCOC(=O)Cn1cnc2scc(-c3ccc(C)c(C)c3)c2c1=O	-4	-21	-27	-2.1	2	0	-11	1	0.1	1.3
COc1ccc(C(=O)OCC(=O)C(C)(C)C)cc1S(=O)(=O)N(C)CCc1cccnc1	6	5	5	0.3	-9	-2	2	-2	-0.9	-0.7
Cc1cc2oc(C(=O)NC3CCS(=O)(=O)C3)cc(=O)c2cc1C (stereo unspecified)	-11	6	5	-2.9	12	/	-5	2	/	/
Cc1nn(C)c(C)c1C(C)NC(=O)c1cc(COc2ccc(F)c(F)c2)on1 (stereo unspecified)	-5	-10	-16	1.4	-3	/	-3	-3	0.5	-0.7
CCOC(=O)Nc1ccc2c(c1)N(C(=O)CCN(C)C)c1ccccc1S2	85*	/	/	/	21	-9	17	-7	-0.3	-2.3
Cc1ccc(OCc2ccc(C(=O)Nc3c(C)nn(Cc4c(F)c(F)c(F)c(F)c4F)c3C)o2)c([N+](=O)[O-])c1	/	/	/	/	-4	17	35	7	-1.1	-0.5
CCOC(=O)C(C)Sc1ccc2nnc(CCNS(=O)(=O)c3ccc(C)cc3)n2n1 (stereo unspecified)	-4	6	2	-0.5	0	-3	-9	20	0.7	0.5
O=C(CCN1CCN(c2ccccn2)CC1)Nc1ccc(F)cc1	-13	/	/	/	3	4	-8	8	0.6	-1.0
C=CCOC(=O)C1=C[C@@H](c2ccc(Br)cc2)[C@H](CCCO)[C@@H](OCC)O1	1	-6	4	2.4	-3	4	14	12	0.3	-5.1
Cc1ccc2nc(N3CCN(Cc4nnnn4Cc4ccccc4)CC3)c(C#N)cc2c1	1	/	/	/	18	-1	-3	-7	-0.1	-5.8
Cc1nnc(SCC(=O)Nc2nccs2)[nH]c1=O	-19	/	/	/	-12	-2	0	-4	0.2	5.7
COc1ccc(C(=O)N2CCN(Cc3cn[nH]c3-c3ccc(OC)cc3F)CC2)cc1	-15	11	7	-3.8	-4	-3	-5	-10	-1.7	-2.0
Cc1ccc(-c2nn(CC(=O)Nc3cccnc3)c(=O)c3ccccc23)cc1	-8	/	/	/	-5	3	-21	-7	0.6	3.2
COc1ccc2[nH]cc(CCNC(=O)C3CCCCC3)c2c1	-9	9	6	3.7	-7	1	9	2	-0.3	12*
CCOc1ccc2[nH]c(=O)c(CN(CC3CCCN3CC)C(=O)NCc3ccccc3)cc2c1 (stereo unspecified)	-4	/	/	/	-5	-9	4	0	0.2	-5.3
Cc1cc2n(n1)C(c1ccc3c(c1)OCO3)Nc1ccccc1-2 (stereo unspecified)	3	/	/	/	?	0	4	-15	-0.5	-1.3
Cc1ccc(NC(=O)COC(=O)CNC(=O)c2ccc(Cl)cc2Cl)cc1S(=O)(=O)N1CCOCC1	-5	1	13	-0.2	-13	-1	5	1	-0.1	-0.4
Cc1nc(SCC(=O)c2ccccc2)c(C#N)c(-c2ccco2)c1C(=O)NCc1ccco1	-10	/	/	/	/	5	-2	19	-0.6	1.9
CCOC(=O)c1c(-c2ccccc2)csc1NC(=O)CSc1ccccc1	7	/	/	/	-4	-6	-10	-6	-0.5	-5.9
CCN(Cc1ccccc1)S(=O)(=O)c1cc2[nH]c(=O)c(=O)[nH]c2cc1C	-16	4	10	2.6	-2	-3	5	3	-0.4	-0.6
Cn1c(=O)n(C)c2cc(S(=O)(=O)O)ccc21	-25	/	/	/	-4	-4	30	-12	-0.3	2.1
O=C(O)C1CC(=O)N(C2CCCCC2)C1c1ccccc1 (stereo unspecified)	-12	/	/	/	0	-5	16	-11	1.0	5.1
COc1ccc(C(=O)NCc2c(C)oc(C)c2C(=O)O)cc1	-2	10	-1	0.0	/	-1	1	0	1.0	-2.7
COCCNC(=O)c1ccc2c(=O)n(CCOC)c(=O)[nH]c2c1	-11	/	/	/	-2	-3	-7	3	-0.4	2.6
CN1C(C(=O)NCc2cccc(C(F)(F)F)c2)CC2Cn3c(nc4ccccc43)C21 (stereo unspecified)	10	4	9	-2.0	/	-8	-4	-2	1.5	-0.2
Cc1cccc(N(CC(O)CN(C)C)S(=O)(=O)c2ccccc2)c1 (stereo unspecified)	-17	/	/	/	-5	6	-2	-2	-0.2	3.0
COc1ccc(/C=C/C(=O)NC(C)C)cc1Br	/	/	/	/	1	-6	-10	-6	-0.1	0.8
Cc1ccc(S(=O)(=O)N2CCN(C(=O)C(Cc3ccccc3)NC(=O)c3ccccc3)CC2)cc1 (stereo unspecified)	/	8	10	3.4	12	0	/	0	-0.5	-1.5
Cc1[nH]c(=O)[nH]c(=O)c1NC(=O)c1cccs1	-17	/	/	/	-3	4	-4	7	0.7	5.4
CN(CC(=O)Nc1ccc(S(=O)(=O)N2CCCC2)cc1)Cc1cccc(Cl)c1Cl	4	-29	-40	4.2	-1	0	2	-6	-0.2	1.5
CCOc1cc(Cl)c(S(=O)(=O)NCc2cccnc2)cc1Cl	-22	-3	-6	9.8	-1	-3	0	-14	-1.0	0.4
CCc1ccccc1NC(=O)CNC(=O)CNC(=O)C1CCCCC1	/	11	11	-0.2	/	-4	/	10	0.1	-2.5
CC1CCN(C(=O)CCNS(=O)(=O)c2ccc(Br)cc2)CC1	/	-6	-8	0.2	-2	?	/	-4	0.9	24*
CCOc1ccc(NC(=O)c2c3c(nc4ccccc24)CCC3)cc1	14	12	22	2.2	-2	0	-19	-13	-0.2	4.9
COC(=O)c1[nH]c2ccccc2c1NC(=O)c1ccccc1[N+](=O)[O-]	-9	/	/	/	-1	-2	21	5	0.2	1.6
CCCC(=O)n1nc(-c2cccnc2)nc1N	1	/	/	/	3	-1	-18	1	0.6	-2.2
c1ccc(-c2ccc(CN3CCSCC3)cc2)cc1	10	-4	-7	-1.6	0	1	3	-2	1.1	-0.3
Cc1cc(N/C=C2\CCCCC2=O)no1	-12	4	10	-0.1	-16	-8	-7	-1	0.7	1.0
Cn1c(-c2c(N)n(CCCc3ccccc3)c3nc4ccccc4nc23)nc2ccccc21	71*	17	16	17	/	/	1	-36	/	/
Nc1cc(C(=O)OCC(=O)N2CCC(Cc3ccccc3)CC2)ccc1Cl	/	-11	-18	-0.7	17	2	/	0	0.3	3.4
Cc1nn(C)c(C)c1NC(=O)CSc1nnc(C)n1-c1ccccc1	-13	10	12	-11	-6	-6	1	11	-0.5	9.1
CCOC(=O)N1CCN(C(=O)Cn2ccc3c(OC)cccc3c2=O)CC1	-6	2	9	-2.4	/	0	-5	-6	-0.2	-6.9
CCOc1ccccc1C(=O)N(CN1CCCC1=O)c1ccc(C)c(Cl)c1	-11	/	/	/	-2	-1	34	0	0.3	-2.4
COCCNc1nc(N)c([N+](=O)[O-])c(NCCO)n1	0	/	/	/	-5	-5	2	5	-0.2	2.0
Cc1ccc(S(=O)(=O)N2CCC(Oc3ccc(-n4cnnn4)cc3)CC2)cc1	-8	-5	1	-5.5	-7	10	-2	-3	0.1	-4.1
CP(=O)(COC(=O)c1ccccc1)COC(=O)c1ccccc1	1	/	/	/	-8	-6	3	1	-1.4	3.1
Cc1cc2cc(CCNS(C)(=O)=O)c(=O)[nH]c2cc1C	0	/	/	/	1	-4	?	1	0.0	-0.1
COc1ccccc1/C=C/CN1CC(C)OC(C)C1 (stereo unspecified)	2	/	/	/	2	-1	-10	5	0.7	-4.4
Cc1cc(C)n(Cc2ccc(C(=O)O)cc2)n1	0	8	-1	0.5	-3	-11	1	3	0.6	7.6
Cc1noc(C)c1C(=O)Nc1nc(-c2ccc(F)cc2)cs1	/	1	-11	-0.9	55	1	/	0	2.2	7.4
O=C(CCNC(=O)c1ccccc1Cl)Nc1nc(-c2ccc(F)cc2)cs1	-10	-14	-1	5.6	/	-8	1	-4	0.0	-2.4
CCOC(=O)CSc1nnc(-c2ccc(S(=O)(=O)NCc3cccs3)cc2)o1	9	6	16	0.2	-2	-14	0	34	0.1	-1.1
O=C(NCc1ccco1)C(=S)N1CCCCC1	-17	11	4	0.1	-5	-19	3	1	0.6	1.3
c1ccc2nc(-c3nccs3)ccc2c1	-17	15	8	0.6	-12	-2	-3	-9	-2.9	-2.9
CCc1cc2c(NCC(=O)O)ncnc2s1	-11	/	/	/	-39	-3	-19	10	-0.5	-6.5
COC(=O)c1cccc(S(=O)(=O)N(Cc2ccco2)Cc2cc3ccc(OC)cc3[nH]c2=O)c1	6	/	/	/	-4	1	-1	7	1.6	0.5
COc1ccc(Cc2nnc(NC(=O)c3ccc(Cl)c([N+](=O)[O-])c3)s2)cc1	-24	/	/	/	-4	0	-30	-4	1.6	1.8
CCCNC(=O)C1CCN(S(=O)(=O)c2ccc3nc4c(c(C(=O)O)c3c2)CCCCC4)CC1	-2	5	11	1.5	/	/	6	-6	/	/
Cc1cc(C)cc(N(CC(=O)N2CCc3ccccc32)S(=O)(=O)c2c(C)noc2C)c1	12	13	10	2.9	-57	-6	4	11	0.3	-0.8
CCOC(=O)N1CCN(C(=O)c2ccccc2NC(=O)COc2ccccc2C)CC1	3	-1	-19	-14	-5	-4	-5	6	0.0	3.8

New compounds follow.
SMILES	T cruzi inh	Ecoli rRNA inh	Ecoli rRNA inh OD600	Ecoli rRNA inh RFP	ALR H2O2 inh	Beta cell apopt	Calb FLC	B2AR ag	A1 inh	LANA-H2B inh
O=C(Nc1ccc(F)cc1F)N1CCCN(c2ccc([N+](=O)[O-])cn2)CC1	9	8	2	5.6	-17	-6	-3	-2	0.0	1.1
Cc1ccc(N2CCN(C(=O)c3cc(COc4c(C)cccc4C)on3)CC2)c(C)c1	17	3	3	1.4	-1	2	0	3	0.3	3.2
CC(=O)C1C(c2ccc(Cl)cc2)NC(=O)NC1(O)C(F)(F)F (stereo unspecified)	-13	7	16	0.9	-2	-3	-2	7	-0.2	-1.7
Fc1ccc(NCc2cccnc2)cc1F	53	9	-2	-0.4	-15	-10	-14	-31	1.7	3.4
N=c1c(C(=O)NCCN2CCOCC2)cc2c(=O)n3ccccc3nc2n1Cc1ccc(F)cc1	6	1	10	-1.7	-4	6	2	-7	0.1	7.9
CCCCC(=O)NC(=S)Nc1ccc(S(=O)(=O)N2CCCC2)cc1	0	/	/	/	-21	-3	-24	-7	-1.3	-1.3
Cc1ccccc1Nc1nc(-c2sc(NC(=O)c3ccccc3)nc2C)cs1	-10	/	/	/	-20	-4	-1	/	-9.1	2.2
O=C(c1cccc2ccccc12)N1CCN(c2ccc([N+](=O)[O-])c(NCc3ccco3)c2)CC1	28	-2	8	12	-1	-10	-14	1	0.2	0.8
Cc1nnc(NC(=O)c2cc(S(=O)(=O)N3CCCCC3)ccc2Cl)s1	-17	-14	-14	-0.1	-20	/	-2	5	0.3	0.7
O=C(Nc1ccc2oc(-c3ccncc3)nc2c1)c1ccc2c(c1)OCO2	7	1	7	1.2	0	5	2	15	0.2	-0.9
